# Sa growth 42C = S. aureus growth inhibition; S. aureus RN4220 growth, OD600, 20 h, 42 °C; stronger effect = lower value; relative growth, % (no concentration beside the values); actives 0.53% (n = 170,000); AID 720641;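 active = growth at 42 °C up to 50% and 20 or more points under that at 30 °C, or under 10% at both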;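 note: 300 nL library stock went into each well; scaled to the means of positive and negative controls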
# HCMV UL50-53 inh = cytomegalovirus nuclear egress complex inhibition; HTRF UL50-UL53 interaction, normalized percent inhibition; inhibition, % (concentration not given with the values); actives 0.15% (n = 190,000);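 active = both replicates at 50% or more, plus weaker picks with an unusually low signal ratio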;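 note: stock transfer was 100 nL into about 20 µL; 0% = negative control wells and 100% = wells with untagged competitor protein; inactives centre near -12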
# GIV-Gai inh = inhibitors of GIV GBA-motif binding to rat Galpha-i3; percent of control (FP), % (concentration not given with the values); actives 0.42% (n = 210,000); Galpha-i3/FITC-GIV peptide fluorescence polarization, 90 min; stronger effect = lower value; scaled: aluminum fluoride 0%, vehicle 100%; AID 1224905; P08753;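 active = replicate mean at 85% of control or lower, very high polarization wells dropped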;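 note: wells of about 15 µL received 100 nL stock; the first replicate is given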
# Target sequence (P08753 whole entry, looked up): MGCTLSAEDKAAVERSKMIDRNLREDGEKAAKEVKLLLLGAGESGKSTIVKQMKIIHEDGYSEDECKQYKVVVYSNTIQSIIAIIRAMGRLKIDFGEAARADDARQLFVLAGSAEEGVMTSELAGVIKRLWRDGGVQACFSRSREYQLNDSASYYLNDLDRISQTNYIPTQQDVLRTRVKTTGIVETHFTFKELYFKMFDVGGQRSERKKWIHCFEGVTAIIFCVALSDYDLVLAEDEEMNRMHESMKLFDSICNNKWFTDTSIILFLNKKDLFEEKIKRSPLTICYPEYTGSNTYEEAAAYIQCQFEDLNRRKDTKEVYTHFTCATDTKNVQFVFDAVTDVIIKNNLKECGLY
# Sa growth 42C second temp = further read-out of Sa growth 42C, marked with its call; relative growth, %; measured here: growth at 30 °C;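 optical density after 20 h as mean of two plates; 100% = untreated growth and lower means inhibition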
# * hit, by the source's call; . = no result given; & = joins results of further samples. Rows are unselected; overall some 0.85% were active at least once.
# A first look (4 entries):
SMILES,Sa growth 42C,Sa growth 42C second temp,HCMV UL50-53 inh,GIV-Gai inh
Cc1ncc(CO)c2cc(C(=O)Nc3ccc(S(N)(=O)=O)cc3)c(=O)oc12,.,.,-74,97
COc1ccc(CNC(=O)CCc2c(C)nc3c4cccnc4nn3c2C)cc1,103,95,5,105
Cc1cc(C)c(C#N)c(SCC(=O)NC(C)(C)C)n1,102,90,-5,104
COc1cc(-c2cc(C(F)(F)F)n3ncc(C(=O)Nc4c(C)n(C)n(-c5ccccc5)c4=O)c3n2)cc(OC)c1OC,.,.,5,101

# Results, previewed entries included:
SMILES,Sa growth 42C,Sa growth 42C second temp,HCMV UL50-53 inh,GIV-Gai inh
Cc1ncc(CO)c2cc(C(=O)Nc3ccc(S(N)(=O)=O)cc3)c(=O)oc12,.,.,-74,97
COc1ccc(CNC(=O)CCc2c(C)nc3c4cccnc4nn3c2C)cc1,103,95,5,105
Cc1cc(C)c(C#N)c(SCC(=O)NC(C)(C)C)n1,102,90,-5,104
COc1cc(-c2cc(C(F)(F)F)n3ncc(C(=O)Nc4c(C)n(C)n(-c5ccccc5)c4=O)c3n2)cc(OC)c1OC,.,.,5,101
Cc1cc(C)cc(OCC(=O)N(Cc2ccc(Cl)cc2)C2CCS(=O)(=O)C2)c1 (stereo not drawn),103,85,3,100
COc1ccc(NC(=O)CN(c2ccc(C)cc2)S(=O)(=O)c2cccc3nonc23)cc1OC,110,84,-71,108
CC(Oc1ccc(-c2nnco2)cc1)C(=O)Nc1cccc2ccccc12 (stereo not drawn),85,84,-14,.
Cc1ccccc1CC(=O)Nc1ccc(S(N)(=O)=O)cc1,79,93,-30,104
CSc1cccc(NC(=O)CCS(=O)(=O)c2cccc3nonc23)c1,87,88,-80,103
O=C(CSC1=NCCS1)NC12CC3CC(CC(C3)C1)C2,99,82,-27,.
COc1ccc(Br)c(C(=O)Nc2cc3c(cc2N2CCOCC2)n(C)c(=O)n3C)c1,104,89,-12,101
CCCC(=O)N1c2ccccc2C(Nc2ccccc2)CC1C (stereo not drawn),86,77,-31,100
O=C1CC(c2ccc(Cl)cc2)CC2=C1C(c1cc3c(cc1[N+](=O)[O-])OCO3)Nc1ccccc1N2 (stereo not drawn),.,.,-24,101
CCOc1ccc2c(c1)NC(c1ccc(C)o1)=NC(c1cccs1)=N2,63,50,-43,102
CC(=O)N(C)c1cccnc1,100,99,-2,110
Cc1ccc(Nc2cc3oc4cc(C(C)(C)C)ccc4[nH]c3c3c(=O)c4ccccc4c(=O)c23)cc1,.,.,4,104
CCOc1ccc(-n2ccnc2SCC(=O)Nc2ccc(OC)cc2OC)cc1,76,91,.,98
COc1ccc(CNC(=O)C(C)n2nc(C)c3c(C)n(-c4ccccc4)nc3c2=O)c(OC)c1 (stereo not drawn),107,95,.,109
CCC(C#N)(C(N)=O)c1ccccc1 (stereo not drawn),93,85,-9,95
N#Cc1ccsc1NC(=O)/C=C/C(=O)O,93,76,-13,95
O=C(NCc1ccc2c(c1)OCO2)C1CCC(=O)N1CCc1ccccc1 (stereo not drawn),95,107,-12,109&112
Cc1cc(=O)[nH]c2nnc(SCc3c(F)cccc3Cl)n12,77,99,.,95
COc1ccc(C(=O)Nc2ccc(N3CCN(c4ccc(OC)cc4)CC3)c(C#N)c2)cc1,91,91,.,105
O=C(Cn1c2ccccc2c(=O)c2ccccc21)Nc1ccc(Oc2ccc(Cl)cc2)cc1,.,.,-22,120
Cn1c(=O)c(=O)n(C)c2cc(Oc3ccccc3)c(NS(=O)(=O)c3ccccc3Cl)cc21,.,.,-14,99
CC(=O)N1c2ccc(S(=O)(=O)Nc3ccc(C)c(Cl)c3)cc2CC1C (stereo not drawn),87,96,.,108
COC(=O)c1cc2sccc2n1CC(=O)Nc1ccc(C(C)C)cc1,111,87,.,102
O=C(CN1C(=O)CCc2ccccc21)NCCN1CCN(c2ccccc2F)CC1,78,85,-13,98
Cc1cc(C)cc(N(CC(=O)Nc2ccc(C)cc2Cl)S(=O)(=O)c2c(C)[nH]c(=O)[nH]c2=O)c1,113,84,-15,106
COc1ccc(Nc2nc(C(=O)N3CCN(c4ccc(Cl)cc4)CC3)cc3occc23)cc1,.,.,-10,104
CC1=CCC(C2OCC3CC=C(C)C2C3)CC1 (stereo not drawn),96,87,-33,.
CN1CCC(N(C)C(=O)c2ccc(S(=O)(=O)NCc3ccco3)cc2)CC1,99,95,-2,.
Cc1c(CNC2CCCCC2)c(C(=O)O)c(C)n1Cc1ccc(Cl)cc1,99,98,-4,100
O=C(NCc1nc2ccccc2s1)c1cc(F)cc2c1OCOC2,104,88,-24,105
O=C(COc1ccccc1)OCc1cc(=O)n2nc(-c3cccs3)sc2n1,85,77,.,104
CC1(C)COC(N(C(=O)NC2CCCCC2)c2cccc(Cl)c2)=N1,62,43,.,101
O=C(COC(=O)Cn1cnc2ccccc21)Nc1ccccc1,100,100,17,.
CCC(C)NC(=O)c1ccc2ccccc2c1 (stereo not drawn),115,94,-24,99
COC(=O)c1sccc1NC(=O)N1CCc2c([nH]c3ccccc23)C1c1ccc(OC)cc1 (stereo not drawn),.,.,-20,105
O=C(Nc1ccccc1C(F)(F)F)C1CCN(S(=O)(=O)c2ccccc2)CC1,108,97,-12,100

# 7 records drawn at random from those above:
SMILES,Sa growth 42C,Sa growth 42C second temp,HCMV UL50-53 inh,GIV-Gai inh
CN1CCC(N(C)C(=O)c2ccc(S(=O)(=O)NCc3ccco3)cc2)CC1,99,95,-2,.
O=C(Cn1c2ccccc2c(=O)c2ccccc21)Nc1ccc(Oc2ccc(Cl)cc2)cc1,.,.,-22,120
CC1(C)COC(N(C(=O)NC2CCCCC2)c2cccc(Cl)c2)=N1,62,43,.,101
O=C(NCc1nc2ccccc2s1)c1cc(F)cc2c1OCOC2,104,88,-24,105
Cc1c(CNC2CCCCC2)c(C(=O)O)c(C)n1Cc1ccc(Cl)cc1,99,98,-4,100
O=C(Nc1ccccc1C(F)(F)F)C1CCN(S(=O)(=O)c2ccccc2)CC1,108,97,-12,100
CCC(C)NC(=O)c1ccc2ccccc2c1 (stereo not drawn),115,94,-24,99

# Other compounds:
SMILES,Sa growth 42C,Sa growth 42C second temp,HCMV UL50-53 inh,GIV-Gai inh
O=C1OC(CC(=O)N2CCN(Cc3ccc4c(c3)OCO4)CC2)c2ccccc21 (stereo not drawn),80,86,-9,.
COc1ccc(-c2nnc(SCC(=O)NCc3ccc(OC)c(OC)c3)n2N)cc1,128,103,1,.
O=C(NCC1CCCO1)c1cc2sccc2n1Cc1ccc(F)cc1 (stereo not drawn),126,92,12,103
Cc1ccc(C)c(NS(=O)(=O)c2ccc3c4c(cccc24)C(=O)N3)c1,96,90,-85,100
CC1CC(C)(C)OC(C2CC=CCC2)O1 (stereo not drawn),95,91,4,98
COc1ccc(Cl)cc1-n1c(SCc2cccc(Cl)c2)nnc1-c1cc2occc2n1C,118,97,.,106
CN(c1ccccc1)S(=O)(=O)c1ccc2c3c(cccc13)C(=O)N2,100,88,-24,103
CCC(=O)Nc1nc2ccc(CC(=O)NCCCN3CCc4ccccc4C3)cc2s1,.,.,-20,135
CCn1c(C)c(C)c2cc(C(=O)NCc3ccc(F)cc3)ccc21,97,91,.,106
COc1cc2ncnc(N3CC(C)OC(C)C3)c2cc1OC (stereo not drawn),118,89,0,108
Fc1ccc(-c2nnc3sc(-c4cc5ccccc5[nH]4)nn23)cc1,.,.,2,114
CCN(C(=O)Cn1cc(C(F)(F)F)ccc1=O)C1=CCCC1,104,94,-10,.
CCCn1c(N2CCN(CC(=O)Nc3ccc(Cl)cc3)CC2)nc2ccccc21,119,81,3,101
CCc1ccc(Oc2c(C(F)(F)F)oc3c(CN4CCN(CC)CC4)c(O)ccc3c2=O)cc1,95,91,-17,103
Cc1ccc(S(=O)(=O)N(C(=O)Oc2ccccc2)c2ccc3oc(=O)sc3c2)c(C)c1,125,94,.,109
Cc1ccc(NC(=O)OCc2cccs2)cc1,95,79,-20,.
O=C(CCNc1nc(-c2ccccc2)nc2ccccc12)N1CCCC1,108,89,-28,.
COC(=O)CCn1nnc(-c2cccc(C)c2)n1,81,83,-25,101
CC(CCc1ccccc1)NC(=O)CN1CCN(Cc2ccccc2)C1=O (stereo not drawn),99,89,-6,100
CCOC(=O)Cc1nc2nc(C)c(Br)c(=O)n2[nH]1,81,85,3,102
CCc1cccc(C)c1-n1c(C)cc(/C=C2\C(=O)NC(=S)N(c3ccccc3F)C2=O)c1C,76,95,.,136
CSc1cccc(NC(=O)CCS(=O)(=O)c2ccc3c(c2)CCN3C(=O)C2CC2)c1,104,82,-33,104
Brc1nc(Br)n(Cc2ccccc2)n1,.,.,5,104
Clc1ccc(-c2nc(C=Nc3ccccc3)c3ccccn23)cc1,119,80,.,104
COC(=O)CSc1nc(C)c2c(n1)CCCC2,115,81,-20,106
COC(=O)COc1ccccc1C(=O)OC,96,93,-5,101
COc1ccc(-c2nsc(NC(=O)c3ccccc3Br)n2)cc1,99,80,-32,98
C=C(C)Cc1c(C)nc(-c2ccc(Cl)cc2)nc1OC(=S)N(CC)CC,102,88,-21,98
Cn1c(SCC(=O)N2CCCc3ccccc32)ncc(C(=O)Nc2ccccc2)c1=O,106,98,.,103
Cc1ccc(C)c(Nc2cc(C(=O)NC3CCCC3)c3ccccc3n2)c1,97,96,3,103
Cc1cc(=O)n2c(n1)NC(Nc1ccccc1)=NC2c1ccccc1 (stereo not drawn),.,.,-14,97
Cc1ccc(OCC(=O)OC2=C(C(=O)c3ccccc3)N(C)S(=O)(=O)c3ccccc32)cc1,109,94,-21&-16,102&99
OCc1cn(CC(O)Cn2cnc3ccccc32)c2ccccc12 (stereo not drawn),111,79,-7,105
Cc1nnc(N2CCN(c3cccc(Cl)c3)CC2)c2c1nnn2Cc1ccc(F)cc1,94,85,-18,102
CCN1CCN(c2cc3c(cc2F)c(=O)c(S(=O)(=O)c2ccc(OC)cc2)cn3C)CC1,98,98,-6,106
CCOc1ccc(N2C(=O)CN(Cc3ccccc3)[C@H]3CS(=O)(=O)C[C@H]32)cc1,.,.,12,107
CC(=O)Nc1ccc(C(=O)NCCCn2c(-c3ccc(C)cc3)nc3cccnc32)cc1,.,.,-2,115
COc1ccccc1NS(=O)(=O)c1ccc2oc(SCC(=O)N3CC(C)OC(C)C3)nc2c1 (stereo not drawn),100,98,5,.
COc1ccc(C(=O)CN2C(=O)N(c3cc(C)cc(C)c3)S(=O)(=O)c3ccccc32)cc1,119,107,.,107
CCCCSC1=C(C#N)C(=O)NC(C(C)C)S1 (stereo not drawn),93,81,-38,100
Cc1ccc(Nc2nc(O)c(C3=c4cc(Br)ccc4=NC3=O)s2)cc1C,.,.,1,108
Cc1nn(-c2ccccc2)c2sc(C(=O)NN=C3CCCC3)cc12,78,116,27,103
Cc1ccc(-c2nc(C#N)c(N(C)C)o2)cc1,112,87,-9,.
CCN1C(=O)CS/C1=N\S(=O)(=O)c1ccccc1,103,95,11,.
Cc1oc2ccc(O)c(CN3CCCCCC3)c2c1C(=O)Nc1cccc(C(F)(F)F)c1,88,39,20,103
CCOC(=O)N1CCN(S(=O)(=O)c2ccc(C(=O)Nc3nc4ccc5ccccc5c4s3)cc2)CC1,.,.,-8,103
Cc1ccc2c(CNCc3ccccc3)c(C(=O)O)[nH]c2c1,98,96,-32,103
COc1ccc(NC(=O)CSc2nc(-c3ccco3)cc(C(F)(F)F)n2)cc1,95,94,-14,99
Cc1cc(N)n(C2CCCCC2)n1,91,81,-22,98
CN(Cc1ccccc1)S(=O)(=O)c1ccc(NC(=O)c2ccco2)cc1,99,60,2,97
O=C(C1COc2ccccc2O1)N(Cc1ccc2c(c1)OCO2)C1CCCC1 (stereo not drawn),115,80,-9,.
COCC(=O)Oc1c(Sc2ccc(C)cc2)c(C)nn1C(C)(C)C,146,92,-8,94
COc1cccc(C(Nc2nc(C)cc(C)n2)c2c(NC(=O)c3ccccc3)sc(C)c2C)c1 (stereo not drawn),.,.,-13,100
CC(C)CC(=O)N1CCN(Cc2ccccc2)CC1,107,103,7,104
CS/C(=N/S(=O)(=O)c1ccccc1)N1CCN(c2c(C#N)cccc2C#N)CC1,95,95,-4,111

# Structures above that contain a cyano group (7):
SMILES,Sa growth 42C,Sa growth 42C second temp,HCMV UL50-53 inh,GIV-Gai inh
Cc1cc(C)c(C#N)c(SCC(=O)NC(C)(C)C)n1,102,90,-5,104
CCC(C#N)(C(N)=O)c1ccccc1 (stereo not drawn),93,85,-9,95
N#Cc1ccsc1NC(=O)/C=C/C(=O)O,93,76,-13,95
COc1ccc(C(=O)Nc2ccc(N3CCN(c4ccc(OC)cc4)CC3)c(C#N)c2)cc1,91,91,.,105
CCCCSC1=C(C#N)C(=O)NC(C(C)C)S1 (stereo not drawn),93,81,-38,100
Cc1ccc(-c2nc(C#N)c(N(C)C)o2)cc1,112,87,-9,.
CS/C(=N/S(=O)(=O)c1ccccc1)N1CCN(c2c(C#N)cccc2C#N)CC1,95,95,-4,111

# Source: PubChem
